Rango dissoc inh: qHTS Assay for Inhibitors of RanGTP induced Rango (Ran-regulated importin-beta cargo) - Importin beta complex dissociation; Potency, µM (top dose mostly 46.1 µM), inactives show at the top dose activity change, negative = inhibition; Snurportin-1 (Homo sapiens) + GTP-binding nuclear protein Ran (Homo sapiens) + Importin …; Biochemical FRET Rango-importin beta, RanGTP-induced dissociation; 340,000 tested, 0.071% active; active means falling FRET ratio curve, often poorly fitted, with flat reads before Ran was added; inconclusive means other falling curves, or compound fluorescence or quenching; inactive means flat or rising ratio curve;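 also: potency is read from the fitted curve at half-maximal effect; % of control where 0% means no effect; nearly all actives have a fitted effect of over 45% in size; -100% = wells without RanGTP and RCC1; the record marks most hits as doubtful in a second field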
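FRET read at 45 min, room temperature: inhibitors block the CFP/YFP signal rise when RanGTP (0.6 uM Ran, 2 mM GTP, 0.2 uM RCC1) frees Rango (0.1 uM) from importin beta (0.25 uM). Pre-read after 5 min compound exposure flags interference.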
miR-21 reporter: qHTS Assay for Modulators of miRNAs and/orActivators of miR-21. 340,000 tested, under 10 active. Potency, µM (doses to about 38.3 µM), for the others: top-dose reporter change, positive = more light. HeLa miR-21 FLuc reporter, luciferase, 48 h; active = well fitted rising curve with a large enough effect; inconclusive = small, poorly fitted or top-dose-only effect; inactive = no such curve, though single readings can be large or run the other way;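 also: % of control where 0% means no effect; miR-21 action dims this reporter so a rising signal means less miR-21 action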
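Compounds were titrated across several concentrations (up to approximately 40 uM) and incubated 48 hours with HeLa miR-21-FLuc reporter cells (miR-21 target sequence downstream of FLuc, endogenous miR-21). Readout was firefly luciferase luminescence after lytic detection reagent.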
GLA inh pH 4.5: qHTS Assay for Inhibitors of Human alpha-Galactosidase at pH 4.5. AID 1467, 2008. activity change, negative = inhibition, % at 105 µM. purified enzyme, 4-MU-alpha-Gal fluorescence, pH 4.5. 230,000 tested, under 10 active; inconclusive = small, poorly fitted or top-dose-only inhibition, or a rising curve; inactive = flat fitted curve, though single readings scatter; no compound was filed as active;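 also: 0% = full activity with enzyme and -100% = basal without enzyme; dose as in the result columns while the protocol names 77 µM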
Target sequence (P06280 whole entry, looked up): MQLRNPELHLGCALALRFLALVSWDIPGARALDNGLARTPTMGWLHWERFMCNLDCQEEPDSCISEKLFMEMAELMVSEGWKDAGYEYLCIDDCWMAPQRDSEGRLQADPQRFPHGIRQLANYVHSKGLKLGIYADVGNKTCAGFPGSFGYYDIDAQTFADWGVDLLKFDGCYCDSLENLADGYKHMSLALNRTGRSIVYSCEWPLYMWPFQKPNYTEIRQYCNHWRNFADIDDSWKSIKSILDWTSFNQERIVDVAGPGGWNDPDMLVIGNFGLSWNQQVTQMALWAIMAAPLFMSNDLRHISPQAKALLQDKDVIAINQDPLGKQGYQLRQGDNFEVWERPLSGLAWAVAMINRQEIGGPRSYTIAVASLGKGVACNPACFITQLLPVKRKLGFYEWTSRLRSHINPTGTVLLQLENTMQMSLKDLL
Rango complex inh: qHTS Assay for Inhibitors of Rango (Ran-regulated importin-beta cargo) - Importin beta complex formation; 340,000 tested, 0.031% active; Potency, µM (top dose mostly 92.2 µM), without a hit: top-dose inhibition of complex formation; Rango CFP/YFP FRET sensor + importin beta, 45 min; active = rising FRET ratio curve, often small or poorly fitted; inconclusive = mostly compound fluorescence or quenching in the first reads; inactive = flat curves in all reads;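 also: potency is read from the fitted curve at half-maximal effect; 0% = DMSO wells and 100% = buffer wells lacking importin beta; nearly all actives have a fitted effect of over 15% in size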
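FRET biosensor Rango (snurportin 1 IBB between N-terminal EYFP and C-terminal Cerulean), 50 nM in PBS/1 mM DTT/0.02% Tween-20/0.1% BSA, preincubated 5 min RT with compound; 0.125 microM importin beta added, 45 min RT, CFP/YFP FRET ratio read.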
Numbers without * were called inactive; u = inconclusive; x = no result given; [ ] = another dose, or the depositor's remark. The list is partial. The share of hits here may be higher or lower than overall.

Start of the listing, in advance:
Results follow in this order: Rango dissoc inh, miR-21 reporter, GLA inh pH 4.5, Rango complex inh
Cc1cnc(NC(=O)Nc2ccc(Cl)cc2)s1
  1%, -29%, -8[21.1 µM], -3.9%
COc1cc(/C=N/NC(=O)C(=O)/C=C2\NC(C)(C)Cc3ccccc32)ccc1O
  -11%, 14%, -29, 1.8%
CC1=C(C)C(C)=C(C#N)C(=C(C#N)C#N)N1
  u, -2%, -3, u

Results, previewed entries included:
Results follow in this order: Rango dissoc inh, miR-21 reporter, GLA inh pH 4.5, Rango complex inh
Cc1cnc(NC(=O)Nc2ccc(Cl)cc2)s1
  1%, -29%, -8[21.1 µM], -3.9%
COc1cc(/C=N/NC(=O)C(=O)/C=C2\NC(C)(C)Cc3ccccc32)ccc1O
  -11%, 14%, -29, 1.8%
CC1=C(C)C(C)=C(C#N)C(=C(C#N)C#N)N1
  u, -2%, -3, u
O=C(NN=C1CCCCC1)c1ccccc1-n1cccc1
  -9%, -2%, x, 2.9%
Cc1cccc(N2CCN(C(=O)c3ccc4c(c3)OCCO4)CC2)c1C
  -18%, 2%, -4, -2.9%
CCCCCCOc1ccc(NC(=O)CC2C(=O)N(CC)C(=S)N2Cc2ccco2)cc1 (stereo unspecified)
  7%, u, -26, 0.1%
CCn1cnc2c1c(=O)[nH]c(=O)n2Cc1ccccc1
  -12%, 4%, x, 3.4%
CCC(CO)Nc1ncnc2c1cnn2-c1ccc(Cl)cc1 (stereo unspecified)
  12%, -3%, 3, 1.3%
CN(C)c1ccc(-c2nnc(-c3ccc(S(=O)(=O)C(F)F)cc3)o2)cc1
  u, -4%, 3, u
Cc1cc(C)nc(NC(=O)C(c2ccccc2)c2ccccc2)c1
  8%, 2%, -5, 1.9%
CCN1C=C(Cc2ccc(F)cc2)C2=C(C1)C(c1ccc(F)cc1)C(C#N)=C(N)O2 (stereo unspecified)
  u, -6%, -1, u
Cn1c(=O)c2ccccc2n(Cc2ccccc2F)c1=O
  -6%, -2%, -6, 2.0%
Nn1c(SCC(=O)Nc2ccccc2)nnc(Cc2ccccc2)c1=O
  -1%, x, x, 1.4%
O=C(COC(=O)C1CCN(/C=C/C(=O)C(F)(F)F)CC1)Nc1cccc(F)c1
  1%, -13%, -26, 0.4%
O=C(N/N=C/c1ccc(OCc2ccccc2)cc1)c1ccco1
  2%, -47%, -3, -6.1%
CCN(CC(=O)Nc1c(F)cccc1F)C(=O)COc1ccc2c(C)cc(=O)oc2c1
  -8%, -9%, -3, 1.5%
COc1cc(C(CCN2CCCC(C)C2)c2c(OC)cc(OC)c3c(-c4ccccc4)cc(=O)oc23)cc(OC)c1OC (stereo unspecified)
  -13%, 18%, -4, -0.1%
CCOC(=O)C1=C(C)OC(N)=C(C#N)C1c1cc2c(cc1[N+](=O)[O-])OCO2 (stereo unspecified)
  0%, 1%, 4[21.1 µM], -2.3%
O=C(NCc1ccccn1)C(=O)Nc1nc(-c2ccccc2)cs1
  -2%, -9%, -4, 0.3%
COc1ccc([C@H]2CC(=O)C=C(c3cccc(C(C)C)c3)C2)cc1
  0%, x, x, 0.4%
NC1=NC[C@H](Cc2ccccc2)N1CC1CCCCC1
  -10%, x, x, 0.2%
O=C(Cc1cccc2ccccc12)Nc1ccccc1
  -4%, x, x, 5.9%
COc1ccc(Cc2nnc(NS(=O)(=O)c3ccc(NC(C)=O)cc3)s2)cc1
  4%, -1%, x, 4.2%
CCCCc1ccc(NC(=O)CSc2nc(=O)n(CCN(C)C)c3c2CCC3)cc1
  10%, x, x, 3.0%
O=[N+]([O-])c1ccc(CSCc2ccc([N+](=O)[O-])cc2)cc1
  -8%, x, x, u
Cc1cc2c(cc1C)N(Cc1ccccc1)C1=NCCCN12
  5%, 28%, -2, 5.8%
COc1ccc(-c2ncccc2OC(=O)C23CC4CC(CC(C4)C2)C3)cc1
  19%, -26%, -4, -2.4%
OCCN(Cc1ccccc1)CC(O)COc1ccc(-c2ccccc2)cc1 (stereo unspecified)
  5%, 3%, -20, 5.1%
Cc1cccc(Nc2nc(OCC#N)nc(N(C)C)n2)c1
  -4%, -9%, x, -0.4%
O=C1COc2ccc(C(=O)COC(=O)/C=C/c3ccc(Br)o3)cc2N1
  -28%, x, x, u
COc1ccc(CN(C(=O)COc2ccc(C)c(C)c2)C2CCS(=O)(=O)C2)cc1OC (stereo unspecified)
  24%, -9%, x, 3.0%
CCCc1cc(=O)[nH]c(SCC(=O)Nc2cc(C)on2)n1
  -1%, 1%, -5, -1.4%
CCOc1ccc(N2C(=O)C3CCCN3C2=S)cc1 (stereo unspecified)
  7%, x, x, 6.0%
OC1(Cc2cc(-c3ccccc3)no2)CCN(CCCc2ccccc2)CC1
  -4%, -6%, x, u
Cn1cccc1CC(=O)NNC(=S)NC(=O)c1ccccc1Br
  11%, -1%, 2, 0.6%
Cn1c(Cc2ccccc2)nnc1SCC(=O)Nc1ccccc1N1CCOCC1
  3%, -1%, 5, 8.4%
O=C(Nc1ccc(F)cc1F)N1CCCC(c2nc(-c3ccc(F)cc3)no2)C1 (stereo unspecified)
  -9%, -21%, 8, 1.3%
CC(C)CN(C(=O)CSc1nc2ccccc2c(=O)n1C)C1CCS(=O)(=O)C1 (stereo unspecified)
  -1%, x, x, -1.9%
O=C(Cc1ccc([N+](=O)[O-])cc1)NCc1ccncc1
  -9%, 1%, 1, -0.4%
CN(C)S(=O)(=O)c1cccc(NC(=S)N/N=C/C(=O)c2ccccc2)c1
  -17%, 4%, 6, 3.5%
CCOC(=O)COn1c(=O)c(-c2ccc(F)cc2)[n+]([O-])c2ccccc21
  9%, -4%, x, -2.0%
CC1(c2ccccc2)NC(=O)N(CCN2C(=O)c3ccccc3C2=O)C1=O (stereo unspecified)
  1%, -1%, 1, u
CC(=C\c1ccccc1)/C=C1/SC(=S)N(CCC(=O)O)C1=O
  -14%, 2%, x, 1.2%
Cc1ccc2cccc(SCC(=O)N3CCOCC3)c2n1
  0%, -6%, -1, u
O=C(Nc1ccc(N2CCOCC2)c(Cl)c1)c1cc2ccccc2o1
  -4%, 9%, -5, 5.0%
COc1cccc(C(=O)Nc2cc(NC(=O)c3cccs3)ccc2C)c1
  -7%, -6%, x, -0.3%
CCN1CCN(c2ncc(C(=O)Nc3cc(Cl)c(OC)cc3OC)c3ccccc23)CC1
  0%, -9%, 1, u
COC(=O)Nc1nnc(COc2cccc(C)c2)s1
  -7%, -15%, 2, 1.6%
CCc1ccc(NC(=O)CCS(=O)(=O)c2ccc(Cl)cc2)cc1
  -14%, 1%, x, -2.8%
C=CCn1c(SCC(=O)Nc2ccccc2C)nnc1-c1ccncc1
  14%, -1%, 2, -0.4%

(cont.)
Results follow in this order: Rango dissoc inh, miR-21 reporter, GLA inh pH 4.5, Rango complex inh
Cc1ccc(N2CC(C(=O)Nc3nnc(SCC(N)=O)s3)CC2=O)cc1 (stereo unspecified)
  1%, 3%, x, -4.9%
CC(CCc1ccccc1)NC(=O)C(=O)NCCc1ccccc1 (stereo unspecified)
  -12%, -10%, 10, 4.2%
COc1ccccc1N=CC=C1OC(C)(C)C(C)(C)O1
  u, -7%, 3, u
COC(=O)CSc1nc2c(c(-c3ccco3)c1C#N)CCCC2
  -6%, -5%, 3, 1.9%
Cc1ccccc1-n1c(O)c(/C=N/N2CCCCC2c2cccnc2)c(=O)[nH]c1=O (stereo unspecified)
  -8%, 2%, -9, -0.6%
CC1=NOC(=O)/C1=C\c1ccc(-c2cc(Cl)ccc2Cl)o1
  14%, -1%, -9, u
CC(c1ccccc1)n1c(CO)nc2ccccc21 (stereo unspecified)
  -22%, 1%, x, 3.4%
Cc1cc(NC(=O)c2cccnc2)ccc1NC(=O)c1cc2ccccc2o1
  10%, 18%, x, -0.4%
C=CCN(CC=C)C(=O)C[n+]1ccc(C(N)=O)cc1
  -6%, 0%, -2, 0.2%
CC1=C(C)C(OCCBr)N(c2cc(O)c(Cl)cc2F)C1=O (stereo unspecified)
  -2%, 5%, -4, -1.3%
O=C(NCC(c1ccco1)N1CCN(c2ccccc2)CC1)c1cccs1 (stereo unspecified)
  1%, x, x, 4.4%
O=S(=O)(c1cccs1)N1CCN(c2ccccc2)CC1
  3%, -6%, x, -1.9%
CCn1c(COc2cc(C)cc(C)c2)nnc1SCC(=O)N1CCN(c2ccccc2)CC1
  -5%, -10%, 6, 0.1%
Cn1c(CCN2CCN(c3ccccn3)CC2)nc2cc(NS(=O)(=O)c3ccc(Cl)cc3)ccc21
  -8%, 18%, x, -2.2%
CCn1cc(/C=C(\NC(=O)c2ccc(OC)c(OC)c2)C(=O)N2CCOCC2)c2ccccc21
  u, -2%, x, u
COc1ccc(C(=O)NCCSCc2ccccc2C)cc1
  0%, -10%, -5, -2.3%
CC(=Nc1ccccc1)C1=C(O)C(CC(C)C)NC1=O (stereo unspecified)
  -9%, x, x, 1.6%
O=C(C1CC12CCCC2)N1CCC(CO)(Cc2ccccc2Cl)CC1 (stereo unspecified)
  4%, 5%, 2, -4.8%
COc1cccc(C(C(=O)NC2CCCCC2)N(C(=O)c2ccco2)c2ccccc2OC)c1 (stereo unspecified)
  -15%, -11%, x, 3.8%
O=C(NCc1ccc2c(c1)OCO2)c1ccc(CN2CCc3ccccc3C2)cc1
  12%, -2%, -7, 3.5%

Fetched by compound from above (three):
Results follow in this order: Rango dissoc inh, miR-21 reporter, GLA inh pH 4.5, Rango complex inh
CC(=Nc1ccccc1)C1=C(O)C(CC(C)C)NC1=O (stereo unspecified)
  -9%, x, x, 1.6%
O=C(C1CC12CCCC2)N1CCC(CO)(Cc2ccccc2Cl)CC1 (stereo unspecified)
  4%, 5%, 2, -4.8%
Cn1c(CCN2CCN(c3ccccn3)CC2)nc2cc(NS(=O)(=O)c3ccc(Cl)cc3)ccc21
  -8%, 18%, x, -2.2%

Complete entries as entered above:
`Cn1c(CCN2CCN(c3ccccn3)CC2)nc2cc(NS(=O)(=O)c3ccc(Cl)cc3)ccc21` is listed with Rango dissoc inh = -8%; miR-21 reporter = 18%; GLA inh pH 4.5 = x; Rango complex inh = -2.2%
`O=C(C1CC12CCCC2)N1CCC(CO)(Cc2ccccc2Cl)CC1` (stereo unspecified) is listed with Rango dissoc inh = 4%; miR-21 reporter = 5%; GLA inh pH 4.5 = 2; Rango complex inh = -4.8%

(more compounds)
Results follow in this order: Rango dissoc inh, miR-21 reporter, GLA inh pH 4.5, Rango complex inh
O=C(NCc1ccccc1)C(c1ccncc1)N(C(=O)c1ccccn1)c1ccccc1 (stereo unspecified)
  -2%, -19%, x, -4.3%
CCN(C[C@H]1N[C@@](C)(C(=O)OC)[C@H]2C(=O)N(C)C(=O)[C@@H]12)C(=O)C1CCCCC1
  4%, x, x, 1.9%
COc1ccc(C2CC(c3ccccc3)=NN2C(=S)Nc2ccccc2)cc1 (stereo unspecified)
  -9%, 1%, -20, u
CCCCN(C(=S)SC)C1CCS(=O)(=O)C1 (stereo unspecified)
  -11%, 3%, -4, 0.6%
O=C(CCCn1c(=O)c2sccc2n(Cc2ccc(F)cc2)c1=O)NCc1ccco1
  -20%, 23%, -3, -7.9%
CCC(=O)NC(=S)NNC(=O)c1ccccc1[N+](=O)[O-]
  -1%, 1%, -19, 0.4%
Cc1ccc(S(=O)(=O)N(C)C)cc1NC(=O)COC(=O)CSc1ccccc1
  12%, x, x, -2.9%
O=C(Cn1cnc2c(OCc3ccccc3)ncnc21)NCCc1c[nH]c2ccccc12
  2%, x, x, -5.2%
NC(=O)Cn1ccc(O)c(Cc2ccc(Cl)cc2Cl)c1=O
  -12%, -3%, x, 2.8%
O=C(Nc1ccc(O)c2c(=O)cc(-c3ccccc3Cl)oc12)c1ccc(Cl)cc1Cl
  3%, 4%, 4, -2.5%
Cc1occc1C(=O)NNC(=O)c1ccc(F)cc1
  -9%, -11%, -4, 3.1%

Source: PubChem BioAssay (National Center for Advancing Translational Sciences (NCATS))
